E coli growth = blocks Escherichia coli growth; OD600, 23 h; stronger effect = lower value; OD600 absorbance (no concentration beside the values); hit rate 0.21% among 330,000; AID 1053175;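 active = OD600 absorbance below the run mean of sample wells minus 3.6 SD, in any replicate, cut at about 0.56 in these data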;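 also: stock transfer was 300 nL into about 60 µL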
Bfl-1 A1 inh = inhibitors of the anti-apoptotic protein A1, read as caspase activation. MEF A1-2A-BIM cells, Caspase-Glo 3/7 luminescence, 3 h; percent of clofoctol response, vehicle zero. caspase activation, % (no concentration beside the values). hit rate 0.066% among 330,000. AID 2462;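 active = over half of replicate activation scores above 10%, or exactly half above 10 with the replicate mean above 10; inconclusive = replicate mean below 10 yet half the replicates above 10; inactive = over half of replicates below 10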;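 also: wells of about 30 µL received 50 nL stock; many hits fall short of the cut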
FGF22 binding = binders of recombinant human FGF22 by thermal shift | hit rate 1.5% among 340,000 | Q9HCT0 | SYPRO orange fluorescence; percent of sucrose octasulfate shift, DMSO zero | calls only at 9.99 µM;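 active = melting point raised past a set limit in the mean and every replicate; inconclusive = no clear call; three in four hits are not shown here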
Target sequence (Q9HCT0 whole entry, looked up): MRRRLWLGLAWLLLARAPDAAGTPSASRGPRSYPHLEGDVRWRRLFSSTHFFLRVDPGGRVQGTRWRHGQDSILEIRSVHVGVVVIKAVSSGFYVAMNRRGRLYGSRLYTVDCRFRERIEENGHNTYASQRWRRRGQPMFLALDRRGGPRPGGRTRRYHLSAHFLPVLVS
AF4-AF9 inh = blocks AF4 peptide binding to human AF9; AlphaScreen, biotin-AF4 peptide binding to FLAG-AF9; inhibition, % at 10 µM; hit rate 0.47% among 350,000;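 active = every replicate reaching a set inhibition limit, whatever the replicate mean, cut at about 25% in these data; inconclusive = mean inhibition reaches that limit but some replicates miss it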;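 also: 0% = plate neutral control median and 100% = total signal loss; the record names both 10 and 1 µM as test concentration; the first replicate is given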
Target sequence (P42568 whole entry, looked up): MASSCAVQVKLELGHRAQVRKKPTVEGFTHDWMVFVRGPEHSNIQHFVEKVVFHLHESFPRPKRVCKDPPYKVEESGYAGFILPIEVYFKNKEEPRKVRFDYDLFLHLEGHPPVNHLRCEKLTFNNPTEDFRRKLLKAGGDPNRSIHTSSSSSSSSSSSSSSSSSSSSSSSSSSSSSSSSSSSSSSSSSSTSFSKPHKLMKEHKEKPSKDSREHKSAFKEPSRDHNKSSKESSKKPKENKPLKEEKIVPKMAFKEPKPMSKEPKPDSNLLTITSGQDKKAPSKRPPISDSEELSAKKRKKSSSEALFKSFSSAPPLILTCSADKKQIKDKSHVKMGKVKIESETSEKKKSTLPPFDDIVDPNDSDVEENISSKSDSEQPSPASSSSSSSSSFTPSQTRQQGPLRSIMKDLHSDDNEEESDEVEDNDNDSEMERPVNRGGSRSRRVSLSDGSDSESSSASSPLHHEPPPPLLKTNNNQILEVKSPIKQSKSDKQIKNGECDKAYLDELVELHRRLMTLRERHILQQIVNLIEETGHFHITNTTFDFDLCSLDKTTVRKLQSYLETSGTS
Beta apoptosis = beta cell apoptosis inhibition | INS-1E cytokine-induced death, ATP luminescence, 48 h; percent of positive-control rescue, neutral wells zero | AID 435005 | hit rate 0.8% among 300,000 | protection from apoptosis, % (test concentration not listed);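 active = all replicates at 75% or more, or half of them and the mean; inconclusive = half reach 75% but not the mean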;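 also: 0% = cytokine-treated negative control wells and 100% = positive control rescue; higher means more ATP so stronger rescue from cytokine killing; wells of about 40 µL received 100 nL stock; the first replicate is given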
Ecoli rRNA inh = selective bacterial rRNA inhibition in E. coli; E. coli WT GFP vs humanized-ribosome RFP mutants, fluorescence, 24 h; stronger effect = lower value; DMSO median 0, no signal -100; GFP signal change (wild-type ribosome), % (concentration not given with the values); hit rate 1.6% among 350,000;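 active = significant combined selectivity score with lowered wild-type GFP, culture density cut under 30%, mutant RFP and density less affected; inactive = any of these conditions unmet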; also: one replicate is shown; some compounds called inactive have numbers as strong as hits
UCH37 DUB inh = human UCH37 deubiquitinating enzyme inhibition; Q9Y5K5; purified proteasome/UCH37, Ub-AMC cleavage fluorescence; inhibition, % (no concentration beside the values); hit rate 0.33% among 330,000;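 active = mean of two replicates above 20%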;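 also: 0% = compound-free wells with enzyme and 100% = wells lacking proteasome; stock transfer was 100 nL into about 20 µL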
Target sequence (Q9Y5K5 whole entry, looked up): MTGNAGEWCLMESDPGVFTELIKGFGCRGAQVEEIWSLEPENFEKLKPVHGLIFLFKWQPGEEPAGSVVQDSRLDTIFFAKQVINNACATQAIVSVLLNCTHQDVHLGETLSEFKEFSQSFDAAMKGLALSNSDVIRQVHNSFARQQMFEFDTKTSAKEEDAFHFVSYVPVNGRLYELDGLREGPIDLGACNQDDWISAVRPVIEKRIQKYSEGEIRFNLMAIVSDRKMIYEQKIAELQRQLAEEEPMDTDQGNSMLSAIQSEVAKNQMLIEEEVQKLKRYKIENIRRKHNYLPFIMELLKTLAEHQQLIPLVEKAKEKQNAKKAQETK
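Material: Human UCH37 enzyme supplied as purified proteasome complex | Schedule: 30 min compound-proteasome preincubation then 25 min substrate reaction, room temperature | Detection: AMC fluorescence from Ub-AMC cleavage, excitation 355 nm, emission 460 nm | Benchmarks: Wells without proteasome as full block, compound-free enzyme plus substrate as uninhibited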
T cruzi repl = blocks replication of Trypanosoma cruzi | T. cruzi beta-gal in NIH3T3, luminescence, 90 h | inhibition, % (concentration not given with the values) | hit rate 1.4% among 300,000;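 active = mean inhibition across valid replicates above about 55%, limit read from the data; inconclusive = mean below that limit but half or more replicates reach it; inactive = mean below it, under half of replicates reach it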;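 also: signal also drops with host cell toxicity which is not excluded here; 0% = plate median of DMSO wells and 100% = zero luminescence signal; higher percent means less beta-gal luminescence so fewer parasites; stock transfer was 50 nL into about 50 µL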
Ecoli rRNA inh OD600 = further read-out of Ecoli rRNA inh, marked with its call; OD600 change, %; measured here: OD600 growth;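 optical density of the mix in the first replicate; 0 = DMSO median and -100 = no signal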
Ecoli rRNA inh RFP = second read-out of Ecoli rRNA inh, no call of its own (marks repeat the call); RFP signal change, %; measured here: RFP humanized mutant strains;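 first replicate; 0 = DMSO median and -100 = no signal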
* marks the source's active call; other numbers are inactive results; i = inactive; ? = inconclusive; . = no result given; & = joins results of further samples. The list is partial, so the mix of outcomes need not match the whole.

SMILES | E coli growth | Bfl-1 A1 inh | FGF22 binding | AF4-AF9 inh | Beta apoptosis | Ecoli rRNA inh | Ecoli rRNA inh OD600 | Ecoli rRNA inh RFP | UCH37 DUB inh | T cruzi repl
O=C(CSC1=Nc2ccccc2C2=NC(c3ccccc3)C(=O)N12)NCC1CCCO1 (centres undefined) | 0.69 | 0.3 | . | . | 4 | . | . | . | -98 | -3
C=CCN1C=C2C(=O)C(C)(OC(=O)c3cnc4ccccc4n3)C(=O)C=C2C=C1/C=C/COC (centres undefined) | . | 0.1 | i | -7.2 | -10 | 8 | 8 | 6.7 | 5.5 | -20
O=C(CC1NCCNC1=O)OCc1ccccc1 (centres undefined) | 0.73 | 0.3 | . | . | -1 | . | . | . | 2.3 | -6
O=C(CNC(=O)c1ccco1)OCC(=O)c1ccc(Br)cc1 | 0.65 | -0.2 | i | 0.4 | 0 | 6 | 11 | -2.6 | 1.8 | -1
CCOC(=O)CNC(=O)CSc1nc2cccnc2n1CC | 0.72 | 0.1 | . | . | -4 | . | . | . | 4.2 | 0
Fc1cccc(NC(=S)NCCN2CCOCC2)c1 | 0.69 | -0.1 | i | -0.2 | -3 | . | . | . | 1.5 | -6
Cc1ccccc1NC(=O)Cc1nc(COC(=O)CNS(=O)(=O)c2cccc(Br)c2)cs1 | 0.69 | -0.4 | i | 1.1 | -2 | -2 | 2 | 11 | 1.4 | -5
Cc1ccc(/C(O)=C2\C(=O)C(=O)N(c3cc(C)on3)C2c2cccc(Cl)c2)cc1 (centres undefined) | 0.69 | -0.7 | . | . | -9 | . | . | . | 2.2 | -4
COc1c(S(=O)(=O)N2CCN(C(=O)c3ccco3)CC2)ccc(Cl)c1Cl | 0.7 | 0.2 | i | 2.0 | 4 | -14 | -13 | 1.8 | -0.3 | -2
Oc1cccc(C2c3[nH]c4ccccc4c3CCN2Cc2ccc3c(c2)CCO3)c1 (centres undefined) | 0.68 | ? | i | 15 | 0 | -49 | -79 | -12 | 3.6 | 20
CCN(CC(=O)NCC1CCCO1)S(=O)(=O)c1ccc2ccccc2c1 (centres undefined) | 0.63 | 0.4 | i | -0.2 | -3 | -7 | 5 | 4.2 | 6.7 | 5
NCCCCCc1cn([C@@H](CO)C(=O)NCCCCCCCCCCC(=O)N2CCNCC2)nn1 | . | 0.5 | i | 9.6 | -7 | 4 | 10 | 3.6 | 2.1 | .
COc1cc(NC(=O)CSc2nnnn2-c2ccccc2)cc(OC)c1OC | 0.76 | -0.3 | . | . | 1 | . | . | . | -4.9 | -4
O=c1c2ccccc2n2c(-c3cccc(Cl)c3)nnc2n1Cc1ccccc1 | 0.74 | 0.3 | i | -5.6 | -4 | . | . | . | 5.3 | 23
O=C(NCC1CCCO1)c1cc2ccccc2cc1O (centres undefined) | 0.68 | -0.8 | i | -6.0 | 3 | 56 | -3 | -3.3 | -9.7 | -5
O=C(O)c1ccc(OC2CSC2)cc1 | 0.7 | 0.0 | . | . | -3 | . | . | . | 4.9 | -8
Oc1cc2c(cc1C(c1ccc(Cl)c(Cl)c1)N1CCCC1)OCO2 (centres undefined) | 0.69 | . | i | 27* | . | -15 | -42 | -2.6 | 2.8 | -18
Cc1ccc2c(c1)N(CC(=O)O)C(=O)CO2 | 0.71 | 0.2 | . | . | -1 | . | . | . | 0.9 | -1
COCCNC(=O)Cn1cnc2c(cnn2-c2ccc(OC)cc2)c1=O | 0.68 | 0.5 | i | -5.3 | -4 | 4 | 1 | -1.0 | 4.4 | 4
CCN(CC)CCCn1c2c(c(SCC(=O)Nc3cccc(C)c3C)nc1=O)CCC2 | 0.69 | -0.5 | i | -1.4 | -10 | 10 | 13 | -1.6 | 1.8 | -5
CC(=O)C1C(c2ccc(Cl)cc2)c2c(n[nH]c2C)CC1(C)O (centres undefined) | 0.69 | 0.4 | i | 0.2 | -1 | 11 | -2 | 5.1 | -0.9 | -2
O=C(CCCC(=O)NC1CCCCC1)Nc1ccc([N+](=O)[O-])cc1 | 0.69 | -0.4 | i | 5.0 | 2 | 3 | 2 | 1.3 | 4.2 | -16
O=C(Nc1nc(-c2ccccc2)cs1)C1CCCCN1S(=O)(=O)c1ccccc1 (centres undefined) | 0.68 | -0.4 | i | 8.3 | 7 | -11 | -10 | 1.5 | 1.7 | 6
COc1ccccc1NC(=O)CCc1nnc2ccc(N3CCCCC3)nn12 | 0.65 | 0.5 | i | -3.5 | 1 | 3 | 2 | -1.0 | 5.2 | -3
CCCN(CC(=O)Nc1ccccc1C)C(=O)CCCOc1ccc(Br)cc1 | 0.66 | 0.7 | i | -27 | -2 | -43 | -74 | -4.1 | 0.7 | .
Cc1ccc(-n2[nH]c(C)c(/C=N/c3cccc(C)n3)c2=O)cc1 | . | -1.7 | i | 8.7 | 16 | 8 | 6 | -9.9 | . | -4
Cc1c(C(=O)OCC(=O)NCC2CCCO2)cccc1[N+](=O)[O-] (centres undefined) | 0.67 | -0.2 | i | 0.6 | -4 | 12 | 11 | 0.4 | 5.7 | 5
Cc1ccccc1-n1c(SCc2c(C)noc2C)nnc1-c1cccnc1 | 0.71 | 1.6 | . | . | -2 | . | . | . | -1.7 | 8
CC(Nc1cc(C)cc(C)c1)=[N+](C)CCNS(=O)(=O)c1ccc(Cl)cc1 | 0.65 | -0.3 | i | 1.7 | -6 | 12 | 8 | 2.0 | 2.6 | 29
Cc1nn(C(=O)CCC(=O)NCCc2ccccc2)c2ccccc12 | 0.7 | . | i | -6.5 | . | 4 | 10 | 2.2 | 6.3 | -11
CCOC(=O)COc1c(Br)cc(/C=C2\SC(=O)N(CC(=O)N3CCCC3)C2=O)cc1OC | 0.68 | 0.3 | . | . | -4 | . | . | . | 4.3 | 8
N#CC1=C2SCN(Cc3ccco3)CN2C(=O)CC1c1cccc2ccccc12 (centres undefined) | 0.72 | -0.7 | . | . | -6 | . | . | . | 0.7 | 10
COc1ccc(Cl)cc1NC(=S)NCCc1ccc(S(N)(=O)=O)cc1 | 0.71 | 0.3 | i | 2.9 | -15 | -9 | -16 | -3.0 | 0.4 | -7
O=C(C1=C[C@H](c2ccc3c(c2)OCO3)C[C@H](OCc2ccc(CO)cc2)O1)N1CCN(Cc2ccc3c(c2)OCO3)CC1 | . | -0.4 | i | 2.1&2.1&-8.9 | 1 | 2 | -6 | 7.8 | 4.6 | 43
CC(C(=O)O)c1ccc2c(c1)[nH]c1ccc(Cl)cc12 (centres undefined) | . | -1.4 | i | -6.9 | 0 | . | . | . | 5.5 | 1
Cc1ccc(C)c(N2CCN(C(=O)CCS(=O)(=O)c3cccc4nonc34)CC2)c1 | 0.7 | 0.7 | . | . | -1 | . | . | . | 1.2 | -7
COc1ccc(NC(=S)NC23CN4CN(CN(C4)C2)C3)cc1 | 0.67 | -0.7 | . | . | . | . | . | . | 3.0 | -9
Cc1ccc(S(=O)(=O)N(C)c2cc(S(=O)(=O)N3CCOCC3)c(C)cc2C)cc1 | 0.68 | -0.2 | i | 1.4 | . | -7 | -32 | -3.0 | 5.5 | -10
O=C1CCC[C@H]2c3[nH]c4ccccc4c3CCN12 | 0.66 | 0.2 | i | 4.0 | -4 | . | . | . | 3.1 | -14
O=C(NNS(=O)(=O)c1ccccc1)c1ccccc1-n1cccc1 | 0.7 | 0.3 | i | 0.9 | -6 | 6 | -3 | 0.8 | 0.9 | -6

Single records (already shown).
O=C(O)c1ccc(OC2CSC2)cc1 is listed with E coli growth = 0.7; Bfl-1 A1 inh = 0.0; FGF22 binding = .; AF4-AF9 inh = .; Beta apoptosis = -3; Ecoli rRNA inh = .; Ecoli rRNA inh OD600 = .; Ecoli rRNA inh RFP = .; UCH37 DUB inh = 4.9; T cruzi repl = -8
COCCNC(=O)Cn1cnc2c(cnn2-c2ccc(OC)cc2)c1=O is listed with E coli growth = 0.68; Bfl-1 A1 inh = 0.5; FGF22 binding = i; AF4-AF9 inh = -5.3; Beta apoptosis = -4; Ecoli rRNA inh = 4; Ecoli rRNA inh OD600 = 1; Ecoli rRNA inh RFP = -1.0; UCH37 DUB inh = 4.4; T cruzi repl = 4
Cc1c(C(=O)OCC(=O)NCC2CCCO2)cccc1[N+](=O)[O-] (centres undefined) is listed with E coli growth = 0.67; Bfl-1 A1 inh = -0.2; FGF22 binding = i; AF4-AF9 inh = 0.6; Beta apoptosis = -4; Ecoli rRNA inh = 12; Ecoli rRNA inh OD600 = 11; Ecoli rRNA inh RFP = 0.4; UCH37 DUB inh = 5.7; T cruzi repl = 5

(more compounds)
SMILES | E coli growth | Bfl-1 A1 inh | FGF22 binding | AF4-AF9 inh | Beta apoptosis | Ecoli rRNA inh | Ecoli rRNA inh OD600 | Ecoli rRNA inh RFP | UCH37 DUB inh | T cruzi repl
O=C(OCCCc1cc2ccccc2c(=O)o1)c1ccccc1C(F)(F)F | 0.69 | -0.5 | i | -4.2 | -2 | -22 | -32 | -6.5 | 3.7 | .
CCC(C)N(C(=O)CSc1nnnn1-c1ccccc1OC)C1CCS(=O)(=O)C1 (centres undefined) | 0.69 | -0.3 | i | -3.3 | -1 | 3 | -1 | 1.7 | 4.1 | .
CS(=O)(=O)N1CCC(C(=O)N2CCN(Cc3ccccc3)CC2)CC1 | 0.66 | 0.1 | i | -2.6 | -1 | 15 | 17 | -1.5 | 1.0 | -3
COc1ccc(C2C(C(=O)NCC3CCCO3)c3cc(OC)c(OC)cc3C(=O)N2C)cc1OC (centres undefined) | 0.7 | 0.3 | . | . | -3 | . | . | . | 1.7 | -11
CC(C)c1nc(C#N)c(NN)o1 | 0.63 | ? | i | 3.0 | -6 | 5 | 0 | -4.5 | 5.9 | -4
Cn1c(=O)n(C)c2cc(NS(=O)(=O)c3cccs3)ccc21 | 0.67 | 0.4 | i | -6.6 | -5 | 3 | 5 | 1.3 | 1.3 | 9
O=C(CSc1ccc(-c2ccccc2)nn1)c1ccccc1 | 0.65 | -4.3 | i | -8.6 | -4 | 37 | 13 | 1.3 | -1.7 | 15
CCc1ccccc1NC(=O)c1ccoc1C | 0.7 | -0.2 | . | . | . | . | . | . | 1.5 | -10
COc1ccc(CNC(NC(=O)c2ccccc2)(C(F)(F)F)C(F)(F)F)cc1 | 0.67 | -0.6 | i | -5.0 | 8 | -19* | -9.4* | 1.9* | 3.6 | -21
O=C(CCc1ccc(S(=O)(=O)N2CCCCC2)cc1)c1nnc(-c2ccccc2)o1 | 0.73 | -0.1 | . | . | -3 | . | . | . | 0.7 | 3
CCOc1cc(C2C3=C(CCCC3=O)NC3=C2C(=O)CCC3)cc(Cl)c1O | 0.67 | 0.7 | . | . | 0 | . | . | . | 1.6 | -18
c1ccc(Nc2ncnc3[nH]ncc23)cc1 | 0.64 | -0.3 | i | -0.3 | -7 | 18 | 7 | -1.2 | 4.5 | -1

Assay outcomes (PubChem BioAssay)
